Screens from PubChem BioAssay.
StopGo FLuc: FMDV 2A StopGo reporter, firefly signal; HEK cells with a luciferase reporter of 2A StopGo recoding; Potency, µM (doses to about 57.5 µM), for inactives: at the top dose signal change, negative = less light; 0.23% of 120,000 active; AID 1745856; active = well fitted falling curve with a large enough effect; inconclusive = small, poorly fitted or top-dose-only effect; inactive = no such curve, though single readings can be large or run the other way; note: nearly all actives have a fitted effect of over 60% in size; overnight with compound
2A Renilla: FMDV 2A StopGo reporter, Renilla signal | 0.32% of 120,000 active | Potency, µM (highest dose often 57.5 µM), inactives show at the top dose signal change, negative = less light | HEK cells with a luciferase reporter of 2A StopGo recoding; active means well fitted falling curve with a large enough effect; inconclusive means small, poorly fitted or top-dose-only effect; inactive means no such curve, though single readings can be large or run the other way; note: nearly all actives have a fitted effect of over 55% in size; overnight with compound
Active calls of the source: *; [ ] = remark or other dose. % is set by controls: 0 for no effect and ±100 for the full control effect; potency is the fitted concentration of half-maximal effect. Only part of the results is shown; the hit share may differ from the screen's.

What do the screens show for `Cc1nc(-c2ccncc2)sc1C(=O)O`?
StopGo FLuc: 17%; 2A Renilla: 7%

What do the screens show for `COc1ccc(NC(=O)Cn2ncc3ccc(OC)c(OC)c3c2=O)cc1Cl`?
StopGo FLuc: -12%; 2A Renilla: -19%

What do the screens show for `COc1ccccc1NC(=O)CSc1oc(-c2cccs2)nc1S(=O)(=O)c1ccc(Br)cc1`?
StopGo FLuc: -6%; 2A Renilla: -12%

What do the screens show for `CCOc1ccc(N2CC(C(=O)Nc3ccncc3)CC2=O)cc1` (stereo not given)?
StopGo FLuc: -6%; 2A Renilla: -12%

How did Cn1nc(C(=O)Nc2cc(C(F)(F)F)ccc2N2CCOCC2)c2ccccc2c1=O do in these assays?
StopGo FLuc: 2%; 2A Renilla: -12%

Results for CCc1ccc(NC(=O)c2ccc3c(O)c(S(=O)(=O)c4ccccc4)c(=O)[nH]c3c2)cc1 ?
StopGo FLuc: -12%; 2A Renilla: -13%

Results for CC(=O)N(O)CCCCCNC(=O)CCC(=O)N(O)CCCCCNC(=O)CCC(=O)N(O)CCCCCN ?
StopGo FLuc: 2%[11.5 µM]; 2A Renilla: -32%

How did CCOC(=O)N1CCC(NC(=O)c2cc3cc(OC)ccc3[nH]2)CC1 do in these assays?
StopGo FLuc: 7%; 2A Renilla: -22%

Results for CCN1CCN(c2ccc(S(=O)(=O)N3CCCCC3)cc2NC(=O)Cc2ccccc2)CC1 ?
StopGo FLuc: 11%; 2A Renilla: 13%

What do the screens show for `CCCc1cc(C(=O)N2CCCC2c2cccc(C)c2)no1` (stereo not given)?
StopGo FLuc: -3%; 2A Renilla: 3%

What do the screens show for `Cc1nc2cc(NC(=O)c3cc(Cl)cc(Cl)c3)ccc2o1`?
StopGo FLuc: 142%[activator]; 2A Renilla: 13%

What do the screens show for `O=S(=O)(NCCCn1ccc2ccccc21)c1cccc(F)c1`?
StopGo FLuc: 4%; 2A Renilla: 146%[activator]

How did CCN1c2ccccc2-c2nc(SCC(=O)NCc3ccc(C)cc3)ncc2S1(=O)=O do in these assays?
StopGo FLuc: -23%; 2A Renilla: -14%

Results for CCc1c(C)nc(Nc2nc(C)c3cccc(OC)c3n2)[nH]c1=O ?
StopGo FLuc: 140%[activator]; 2A Renilla: 99%[activator]

What do the screens show for `COc1ccc(C(=O)c2c(N)c(C#N)c3n2CCCC3)cc1`?
StopGo FLuc: 2%; 2A Renilla: 8%

Results for CCOCCCNC(=O)Nc1cc(C(=O)NCc2ccc(C(C)C)cc2)ccc1N1CCCC1 ?
StopGo FLuc: -12%; 2A Renilla: -12%

How did CCCC(=O)NCCCCCCNC(=O)CCC do in these assays?
StopGo FLuc: -1%; 2A Renilla: 5%

What do the screens show for `CCOc1ccccc1C(=O)NCc1ccc2c(c1)CCN2C(=O)c1ccccc1`?
StopGo FLuc: -11%; 2A Renilla: -6%

How did COc1ccc(-c2nc(CN3C(=O)CN=C(c4ccccc4)c4cc(Cl)ccc43)c(C)o2)cc1 do in these assays?
StopGo FLuc: -18%; 2A Renilla: 3%

How did COc1ccc(CCNC(=O)c2cc3c(-c4ccc(OC)c(OC)c4)nn(C)c3s2)cc1OC do in these assays?
StopGo FLuc: 27%; 2A Renilla: -6%

How did COC1C(O)CC(OC2C(O)CC(OC3C(O)CC(OC4CCC5(C)C(CCC6[C@@H]5CC(O)C5(C)C(C7=CC(=O)OC7)CCC65O)C4)OC3C)OC2C)OC1C (stereo not given in full) do in these assays?
StopGo FLuc: inconclusive; 2A Renilla: 0.5µM*

Results for COC(=O)c1ccc(COC(=O)c2cc(-c3ccco3)nc3ccccc23)cc1 ?
StopGo FLuc: 19%; 2A Renilla: -5%

Results for CCCc1cc(=O)oc2cc(OCC(=O)NCCCO)ccc12 ?
StopGo FLuc: -4%; 2A Renilla: -7%

Results for O=C(Cn1ccc2ccc(Cl)cc21)N1CCCCCC1 ?
StopGo FLuc: 24%; 2A Renilla: 20%

How did CC(=O)N1CCc2cc(Br)cc(S(=O)(=O)NCCc3ccc(Cl)cc3)c21 do in these assays?
StopGo FLuc: -19%; 2A Renilla: 0%

What do the screens show for `O=c1c2ccccc2nc(/C=C/c2ccco2)n1-c1ccccc1`?
StopGo FLuc: 16%; 2A Renilla: 8%

Results for O=C(Nc1cc(Cl)cc(Cl)c1)c1ccc(F)c(S(=O)(=O)N2CCCC2)c1 ?
StopGo FLuc: inconclusive; 2A Renilla: inconclusive

Results for CC(C)NC(=O)c1ccc(I)c(Br)c1 ?
StopGo FLuc: 0%; 2A Renilla: -21%

How did COc1cc(CN(C(=O)c2ccc(C)cc2)c2ccccn2)cc(OC)c1OC do in these assays?
StopGo FLuc: inconclusive; 2A Renilla: inconclusive

What do the screens show for `CC(C)COc1ccc(C(=O)NCC2(N3CCN(C)CC3)CCCCC2)cc1`?
StopGo FLuc: -18%; 2A Renilla: -8%

How did CCc1ccc(-n2c(=O)c3c(C)c(C(=O)N(C)C)sc3n(Cc3ccccc3F)c2=O)cc1 do in these assays?
StopGo FLuc: 145%[activator]; 2A Renilla: 188%[activator]

What do the screens show for `Cc1cc2ccccc2n1CC(=O)NC1CCN(CC(N)=O)CC1`?
StopGo FLuc: 0%; 2A Renilla: 1%

Results for CC1CCc2c(sc3ncnc(SCC(=O)N(C)C)c23)C1 (stereo not given) ?
StopGo FLuc: 17%; 2A Renilla: 0%

Results for CCOc1ccc(NC(=O)C2CCN(c3ccc(C#N)cn3)CC2)cc1 ?
StopGo FLuc: -8%; 2A Renilla: -5%

What do the screens show for `COC(=O)c1ccccc1NC(=O)CCCN1C(=O)C(c2ccccc2)Oc2cccnc21` (stereo not given)?
StopGo FLuc: -10%; 2A Renilla: -5%

Results for Cc1ccc(C(=O)N/C(=C/c2ccccc2)C(=O)NC(CC(C)C)C(=O)O)cc1 (stereo not given) ?
StopGo FLuc: 31%[activator]; 2A Renilla: 7%

The last 5 compounds of the part before are carried over, then new ones follow.
What do the screens show for `Cc1cc2ccccc2n1CC(=O)NC1CCN(CC(N)=O)CC1`?
StopGo FLuc: 0%; 2A Renilla: 1%

Results for CC1CCc2c(sc3ncnc(SCC(=O)N(C)C)c23)C1 (stereo not given) ?
StopGo FLuc: 17%; 2A Renilla: 0%

Results for CCOc1ccc(NC(=O)C2CCN(c3ccc(C#N)cn3)CC2)cc1 ?
StopGo FLuc: -8%; 2A Renilla: -5%

What do the screens show for `COC(=O)c1ccccc1NC(=O)CCCN1C(=O)C(c2ccccc2)Oc2cccnc21` (stereo not given)?
StopGo FLuc: -10%; 2A Renilla: -5%

Results for Cc1ccc(C(=O)N/C(=C/c2ccccc2)C(=O)NC(CC(C)C)C(=O)O)cc1 (stereo not given) ?
StopGo FLuc: 31%[activator]; 2A Renilla: 7%

Results for COC(=O)c1ccc2c(c1)N(Cc1cc(C)ccc1C)C(=O)c1ccccc1S2 ?
StopGo FLuc: -5%; 2A Renilla: -1%

Results for CC(C)Oc1cccc(C2CC(=O)Nc3nc(N)sc32)c1 (stereo not given) ?
StopGo FLuc: 9%; 2A Renilla: -3%

How did CC(=O)c1cnn(-c2cc(Nc3ccc(F)c(F)c3)nc(C)n2)c1C do in these assays?
StopGo FLuc: 2%; 2A Renilla: 2%

Results for COCc1nn2c(c1-c1ccccc1)NC(=O)CC2C(=O)Nc1ccc(NC(C)=O)cc1 (stereo not given) ?
StopGo FLuc: -3%; 2A Renilla: -6%

What do the screens show for `Cc1ccc(N(C)S(=O)(=O)c2ccc3[nH]c4c(c3c2)CCCC4)cc1`?
StopGo FLuc: 4%; 2A Renilla: 55%[activator]

How did CCOC(=O)c1ccc(NC(=O)CCS(=O)(=O)c2ccc(C)cc2)cc1 do in these assays?
StopGo FLuc: -6%; 2A Renilla: 3%

What do the screens show for `COCC(C)n1c(COc2ccccc2F)nnc1SCC(C)C` (stereo not given)?
StopGo FLuc: inconclusive; 2A Renilla: -3%[1.06 µM]

Results for CCCN(CCC)C(=O)Cn1c(=O)n(-c2ccc(OC)cc2OC)c(=O)c2c3c(sc21)CCC3 ?
StopGo FLuc: -13%; 2A Renilla: -7%

What do the screens show for `CC(C)Oc1ccc2ccccc2c1/C=C(\C#N)c1nc2ccccc2[nH]1`?
StopGo FLuc: 27%; 2A Renilla: -3%

How did O=S(=O)(Nc1nc2ccccc2nc1Nc1ccc(Cl)cc1)c1ccc2c(c1)OCCO2 do in these assays?
StopGo FLuc: -1%; 2A Renilla: 9%

What do the screens show for `COc1cc(-c2ccno2)ccc1S(=O)(=O)N1CCN(c2cccc(Cl)c2)CC1`?
StopGo FLuc: -20%; 2A Renilla: 99%[activator]

Results for Cc1ccccc1OCC(O)CN(Cc1cccs1)C12CC3CC(CC(C3)C1)C2 (stereo not given) ?
StopGo FLuc: 19%; 2A Renilla: -8%[1.06 µM]

Results for Cc1ccc(-c2cc(C(=O)NN=C3CCCC3)c3ccccc3n2)s1 ?
StopGo FLuc: 36%[activator]; 2A Renilla: -2%

What do the screens show for `CCc1nnc2c(NCc3ccc(F)cc3)nc3ccccc3n12`?
StopGo FLuc: 10%; 2A Renilla: 5%

What do the screens show for `CCc1ccccc1NS(=O)(=O)c1ccc(NC(=O)N2CCCC2)cc1`?
StopGo FLuc: -3%; 2A Renilla: -7%

How did CC(=O)Nc1ccc(CNC(=O)Cc2c(Cl)cccc2Cl)cc1 do in these assays?
StopGo FLuc: 13%; 2A Renilla: 8%

How did Cc1cccc(N(CC(=O)Nc2cccc3ccccc23)S(C)(=O)=O)c1C do in these assays?
StopGo FLuc: -18%; 2A Renilla: 18%

What do the screens show for `CC(C)c1ccc(C(=O)COC(=O)c2ccc(N3CCOCC3)nc2)cc1`?
StopGo FLuc: 17%; 2A Renilla: 20%

How did CCN1C(=O)C(Cc2nc3ccccc3c(=O)n2C)c2cc(C)ccc21 (stereo not given) do in these assays?
StopGo FLuc: -14%; 2A Renilla: -9%

Results for Cc1ccc(NC(=O)CNc2nc(Nc3ccccc3)nc(Nc3ccccc3)n2)cc1C ?
StopGo FLuc: -23%; 2A Renilla: 0%

What do the screens show for `CC(C)(C)c1ccc(CCNC(=O)C2CCCN(S(C)(=O)=O)C2)cc1` (stereo not given)?
StopGo FLuc: 11%; 2A Renilla: 5%

How did O=C(O)c1ccccc1SCc1ccc(Cl)cc1 do in these assays?
StopGo FLuc: 0%; 2A Renilla: 15%

What do the screens show for `O=C(Cn1cnc2ccc(Cl)cc2c1=O)N(C1CCCC1)C1CCS(=O)(=O)C1` (stereo not given)?
StopGo FLuc: -4%; 2A Renilla: -5%

How did COc1ccc(CCNC(=O)c2ccc(Cn3c(=O)c4ccccc4n(Cc4cc(C)ccc4C)c3=O)cc2)cc1OC do in these assays?
StopGo FLuc: -15%; 2A Renilla: -9%

The last 3 entries of the section above are carried over, then new ones follow.
How did O=C(O)c1ccccc1SCc1ccc(Cl)cc1 do in these assays?
StopGo FLuc: 0%; 2A Renilla: 15%

What do the screens show for `O=C(Cn1cnc2ccc(Cl)cc2c1=O)N(C1CCCC1)C1CCS(=O)(=O)C1` (stereo not given)?
StopGo FLuc: -4%; 2A Renilla: -5%

How did COc1ccc(CCNC(=O)c2ccc(Cn3c(=O)c4ccccc4n(Cc4cc(C)ccc4C)c3=O)cc2)cc1OC do in these assays?
StopGo FLuc: -15%; 2A Renilla: -9%

What do the screens show for `Cc1c(C(=O)N2CCC(c3nc4ccccc4s3)CC2)oc2ccc(Cl)cc12`?
StopGo FLuc: -1%; 2A Renilla: -9%

Results for COc1ccc(-n2nc3c(N4CCCC(C(=O)NCCc5ccc(C)cc5)C4)nnc(C)c3c2C)cc1 (stereo not given) ?
StopGo FLuc: 21%; 2A Renilla: 55%[activator]

Results for Cc1c(C)c2ccc(OCC(=O)NCc3ccc(S(N)(=O)=O)cc3)c(C)c2oc1=O ?
StopGo FLuc: 20%; 2A Renilla: 15%

How did Cc1cccc(OC(=O)c2cc(-c3ccc(C)c(C)c3)on2)c1 do in these assays?
StopGo FLuc: -9%; 2A Renilla: -8%

What do the screens show for `Cc1cc(=O)n2c(C(=O)NCc3ccccc3)c(C(=O)Nc3cccc(C)c3C)sc2n1`?
StopGo FLuc: 7%; 2A Renilla: -1%

What do the screens show for `COc1ccc(C)cc1NC(=O)Cn1c(C(=O)c2cccc(F)c2)nc2ccccc21`?
StopGo FLuc: 21%; 2A Renilla: 15%

How did O=C(/C=C/c1cccc(Cl)c1)OC1CCCCC1=O (stereo not given) do in these assays?
StopGo FLuc: 0%; 2A Renilla: -8%

What do the screens show for `CCOc1ccc(Sc2cc(C(=O)NCCCOC)c3ccccc3n2)cc1`?
StopGo FLuc: -3%; 2A Renilla: 15%

What do the screens show for `COc1cc(C(=O)OCc2nc(N)c3ccccc3n2)ccc1C`?
StopGo FLuc: 40%[activator]; 2A Renilla: 21%

How did CCOc1ccc(CNc2nc(NCc3ccc(OCC)cc3)n(S(=O)(=O)CC)n2)cc1 do in these assays?
StopGo FLuc: -2%; 2A Renilla: 20%

What do the screens show for `COC(=O)c1cc(NC(=O)c2cccc(N(C)C)c2)cc(C(=O)OC)c1`?
StopGo FLuc: 0%; 2A Renilla: 41%[activator]

What do the screens show for `CCOc1ccc(C2c3[nH]c4ccccc4c3CCN2C(=O)CCC2CCCC2)cc1` (stereo not given)?
StopGo FLuc: inconclusive; 2A Renilla: inconclusive

What do the screens show for `CCn1c(=O)c2sccc2n2c(CCC(=O)N3CCN(c4ccc(C(C)=O)cc4)CC3)nnc12`?
StopGo FLuc: 11%; 2A Renilla: 69%[activator]

What do the screens show for `Cc1cccc(C(=O)NC(Nc2ccc(I)cc2)C(Cl)(Cl)Cl)c1` (stereo not given)?
StopGo FLuc: inconclusive; 2A Renilla: inconclusive

How did CCn1c(=O)sc2cc(NC(=O)c3cccc(OC)c3)ccc21 do in these assays?
StopGo FLuc: 289%[activator]; 2A Renilla: 9%
